StopGo reporter – lowers the luciferase signal of an FMDV 2A StopGo reporter; human cells with a luciferase reporter of 2A StopGo recoding; control for the full effect not named in the record; Potency, µM (titrated, usually from 57.9 µM), for the others: top-dose signal change, negative = less light; AID 1159524; actives 1.2% (n = 410,000); active = well fitted falling curve with a large enough effect; inconclusive = small, poorly fitted or top-dose-only effect; inactive = no such curve, though single readings can be large or run the other way; tested in HEK293T cells; also: nearly all actives have a fitted effect of over 45% in size; luciferase light after 4 h
RE007 growth inh – less growth of the S. pombe RE007 Vpr strain | S. pombe RE007 Vpr strain, BacTiter-Glo ATP luminescence, 24 h; control for the full effect not named in the record | Potency, µM (series often up to 92.2 µM), without a hit: at the highest dose activity change, negative = less growth | actives 0.21% (n = 360,000) | AID 651644; active = well fitted falling curve with a large enough effect; inconclusive = small, poorly fitted or top-dose-only effect; inactive = no such curve, though single readings can be large or run the other way;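 also: nearly all actives have a fitted effect of over 50% in size; the assay follows cell death caused by Vpr and the record does not say whether a fall means rescue or toxicity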
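Fission yeast RE007 carrying one integrated HIV-1 vpr copy, seeded at OD 0.01 in PMG+AL medium with 23 nL pinned compound. Grown 24 h at 30 degrees; viability read by BacTiter-Glo luminescence after 5 min.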
The depositor's hits bear a star; ? = inconclusive; [ ] = dose if it differs, or a comment. % is scaled to controls: 0 for no effect and ±100 for the full control effect; potency is read from the fitted curve at half-maximal effect. A portion of the library; rates above refer to the full screens.

smiles	StopGo reporter	RE007 growth inh
S=C(NCCc1ccccc1)N1Cc2cc(N3CCCCC3)ccc2-n2nncc2C1	46%[activator]	6%
Cc1ccc2c(c1)[C@H]1[C@H](CO2)[C@H](c2ccccc2)[C@]2(C)C(=O)N(C)CC(=O)N12	-11%	23%
CN1CCN(c2ccc(CNC[C@H]3O[C@@H](n4cnc5c(=O)[nH]c(N)nc54)[C@H](O)[C@@H]3O)c(S(C)(=O)=O)c2)CC1	-19%	-12%
CC1=C(C(=O)N2CCOCC2)CC(CC(=O)NCC2CCCCC2)C(=O)N1Cc1ccc(C(C)(C)C)cc1 (configuration not stated)	14%	0%
O=C(Nc1ccc(Oc2ccccc2)nc1)[C@H]1O[C@@H](n2ccc(=O)[nH]c2=O)[C@H](O)[C@@H]1O	-18%	-2%
CC(=O)Nc1ccc2c3c(ccc([N+](=O)[O-])c13)CC2	0%	3%
CC1(C(=O)Nc2cccc(Oc3ccccc3)c2)CCN1Cc1ccccc1OC(F)F (configuration not stated)	?	2%
Cc1ccccc1S(=O)(=O)NC(=O)C1(C)CCN1C(=O)CC1CCCCC1 (configuration not stated)	-21%	6%[18.4 µM]
CCCS(=O)(=O)NC(=O)C1(C)CCCN(C(=O)c2cc(C)on2)C1 (configuration not stated)	-8%	9%[18.4 µM]
COC(=O)C1=C(c2ccc(OCc3ccccc3)cc2)C[C@@H]2CC[C@H]1N2C	-24%	-9%
O=C(NC1CCCCC1)C1c2ccccc2OCC(=O)N1Cc1ccccn1 (configuration not stated)	-10%	0%
CC(C)(C)n1c(O)c2n(c1=O)Cc1ccccc1N=C2c1ccccc1	-21%	5%
CN(Cc1ccccc1)C(=O)[C@@H]1CCCN1C(=O)[C@@H]1CCCN1C(=O)c1cccs1	-14%	5%
NC(Cc1ccc(F)cc1)c1csc(Nc2ccccn2)n1 (configuration not stated)	-18%	-13%[18.4 µM]
CCNC(=S)Nc1ccc2c(c1)c(=O)n(C)n2CC=C(C)C	16%	-9%
CCCCNc1nc(NCc2ccccc2)nc2ccccc12	?	1%
CCCCN1CC(C)(C)[C@H](CC(=O)Nc2ccc(Br)cc2)C1=O	-17%	5%
COC(=O)C1=C(C(=O)OC)[C@@H]2N(C)c3ccc(OC)cc3[C@@]23C[C@@H](C(=O)OC)N(C(=O)NC2CCCCC2)C3=N1	-6%	19%
CCC/C=C1/CCCOC(C(=O)NCCNCCO)(C(F)(F)F)C1 (configuration not stated)	-9%	-14%
O=C(NCc1ccccc1)C(c1ccccc1)n1c(-c2ccncc2)nc2ccccc21 (configuration not stated)	24%	-8%

A stretch of the results above, for reference:
smiles	StopGo reporter	RE007 growth inh
S=C(NCCc1ccccc1)N1Cc2cc(N3CCCCC3)ccc2-n2nncc2C1	46%[activator]	6%
Cc1ccc2c(c1)[C@H]1[C@H](CO2)[C@H](c2ccccc2)[C@]2(C)C(=O)N(C)CC(=O)N12	-11%	23%
CN1CCN(c2ccc(CNC[C@H]3O[C@@H](n4cnc5c(=O)[nH]c(N)nc54)[C@H](O)[C@@H]3O)c(S(C)(=O)=O)c2)CC1	-19%	-12%
CC1=C(C(=O)N2CCOCC2)CC(CC(=O)NCC2CCCCC2)C(=O)N1Cc1ccc(C(C)(C)C)cc1 (configuration not stated)	14%	0%

Next section
smiles	StopGo reporter	RE007 growth inh
CC(=O)Nc1ccc(NC(=O)C2CCN(S(C)(=O)=O)CC2)cc1	11%	-3%
COc1ccc(NC(=O)C2(C)CCN2CC2CCCCC2)cc1OC (configuration not stated)	-12%	-1%[18.4 µM]
O=C(CN1CCN(C(=O)c2cc(C3CC3)nn2-c2ccccc2)CC1)Nc1ccc(F)cc1	?	8%
Cc1cc(F)ccc1C(O)c1ncc(-c2ccccc2C(F)(F)F)[nH]1 (configuration not stated)	43%[activator]	-4%[18.4 µM]
Cn1c(=O)c2cc(NC(=O)Cc3ccccc3F)ccc2n1Cc1ccc(Cl)cc1	6%	-14%[18.4 µM]
CN(Cc1ccc(Cl)cc1)C(C(=O)NC1CCCCC1)c1cc2ccccc2o1 (configuration not stated)	-2%	1%
COCCN1C(=O)CCC1(C)C(=O)Nc1ccc2ccccc2c1 (configuration not stated)	2%	6%
Nc1[nH]c(C(=O)c2ccccc2)c(-c2ccc(Br)cc2)c1C(=O)NC1CC1	-6%	17%
Cc1cccc(CN2CCN(C3CN(Cc4cn(Cc5ccc(Cl)cc5)nn4)S(=O)(=O)C3)CC2)c1 (configuration not stated)	?	1%
COc1cc(CNc2ncnc3c2ncn3[C@H]2CN(Cc3ccc(Cl)cc3)C[C@@H](CO)O2)cc(OC)c1OC	-29%	8%[18.4 µM]
CCNC(=O)C1(C)CCN(C(=O)c2ccc(OC(F)F)cc2)C1 (configuration not stated)	-15%	4%
CCNC(=O)C1(C)CCN(Cc2ccccc2-c2ccccc2)C1 (configuration not stated)	-20%	?
CSc1ccc(C(=O)Nc2cc(S(=O)(=O)N3CCOCC3)ccc2N2CCOCC2)cc1[N+](=O)[O-]	-11%	3%
Cc1cccc(NC(=O)CCc2ccc(N3C(N)=NC(N)=NC3(C)C)cc2)c1	-21%	16%
COc1ccccc1CNc1nc(NCc2cccc(OC)c2OC)c2sccc2n1	40µM*	?
CCCCCCCCCCCCN1[C@@H](CC(=O)OC)c2cc(F)cc(F)c2S1(=O)=O	-23%	8%
Cn1ccc2c(-c3cccnc3)cc3c(c21)C1CCC3C1 (configuration not stated)	-16%	-10%
COc1ccc(Cc2nc3ccc(C(=O)NCCSC)cc3o2)cc1	59%[activator]	12%
Cc1ccc(-c2nc3c4ccccc4ccn3c2CC2CCCCC2)cc1	9%	-4%
Cc1ccc(NC(=O)CSc2nnc(COc3ccccc3F)n2N)cc1S(=O)(=O)N1CCOCC1	?	-2%

Carrying on:
Every second line gives: StopGo reporter	RE007 growth inh
> Cc1cccc(C(=O)OCC(=O)NC(=O)NC2CCCCC2)c1
→ -21%	-8%
> CCNC(=O)C1(C)CCN(C(=O)c2c(F)cccc2F)C1 (configuration not stated)
→ -20%	1%
> Cc1ccc(CN2CC(N3CCN(Cc4cccc(C)c4)CC3)CS2(=O)=O)cc1 (configuration not stated)
→ -21%	-15%
> O=C(NCc1ccc(F)cc1)Nc1nnc([C@H]2C[C@H](O)[C@@H](CO)O2)s1
→ 2%	10%
> COc1cccc(C(c2nnnn2-c2c(C)cccc2C)N2CCC(n3c(=O)[nH]c4ccccc43)CC2)c1OC (configuration not stated)
→ ?	9%
> O=C(NCc1ccccc1CN1CCCC1)c1ccc(S(=O)(=O)Nc2ccccc2)cc1
→ -22%	-9%
> CS(=O)(=O)N1Cc2cc(C(=O)NCC3CC3)nc(-c3cccc(-c4cccnc4)c3)c2[C@H]1CCO
→ -21%	-4%
> CCN1CCN(c2sc(S(=O)(=O)CC)nc2S(=O)(=O)c2ccc(Cl)cc2)CC1
→ -9%	-2%
> COC(=O)C1=C(c2cc3ccccc3s2)C[C@@H]2CC[C@H]1N2C(=O)N1CCCC1
→ -13%	-14%
> COc1ccccc1N1CCN(CCCN2C(=O)C3CCCCN3C2=O)CC1 (configuration not stated)
→ 3%	15%
> Cc1cc(NC(=O)c2csc([C@@H]3O[C@H](CO)[C@H](O)[C@H](O)[C@H]3O)n2)n(C)n1
→ -10%	10%
> Cc1ccc(NC(=O)C2(C)CCN2C(=O)CCC2CCCC2)cc1C (configuration not stated)
→ -5%	7%[18.4 µM]
> COc1ccc(-c2cnc3c(NC(C)=O)cc(-c4cccc(NS(C)(=O)=O)c4)cn23)cc1OC
→ 0%	-5%[18.4 µM]
> C[C@@H]1CN([C@H](C)CO)C(=O)c2c(c3ccccc3n2C)-c2ccccc2CO[C@H]1CN(C)S(=O)(=O)c1cn(C)cn1
→ -15%	7%
> O=C(NC(=S)N1CC1)c1ccccc1
→ 2%	-5%
> O=C(Nc1cccc(OC(F)(F)F)c1)C1Cc2c(-c3ccc(Cl)cc3)ccnc2O1 (configuration not stated)
→ -2%	-16%
> O=c1c2ccccc2sn1-c1ccc(Cl)cc1Cl
→ -23%	45µM*
> OCCOCCn1c(C(CO)Nc2nc(-c3cccc(Br)c3)cs2)nc2ccccc21 (configuration not stated)
→ 0%	-8%
> COc1ccc(S(=O)(=O)N(C)C)cc1NC(=O)COC(=O)c1n[nH]c2ccccc12
→ ?	1%
> CC(C)NC(=O)C1(C)CSCC(=O)N1CCOc1ccccc1 (configuration not stated)
→ -14%	-6%
> CC(C)Oc1ccc(S(=O)(=O)N2CCOCC2)cc1NC(=O)CN1C(=O)c2ccccc2C1=O
→ -14%	7%
> Cc1ccccc1NS(=O)(=O)c1ccc(C(=O)NCc2ccccc2CN2CCCC2)cc1
→ -22%	5%
> CCCCC(=O)N(C)c1c(C)nc2ccc(C(=O)N3CCN(S(=O)(=O)CC)CC3)cn12
→ -11%	-9%
> Cc1ccccc1-c1cc2nc(NCCN3CCCC3)n(C)c(=O)c2s1
→ 27%	-19%
> O=C(CN1CCN(C(=O)CNC(=O)c2ccc(N3CCCC3=O)cc2)CC1)Nc1cccc(F)c1
→ -20%	-9%
> CCc1ccc(N2CC(C(=O)N/N=C/c3ccccc3)CC2=O)cc1 (configuration not stated)
→ -10%	-12%
> CCNC(=O)C1(C)CCN(C(=O)c2cccc(C#N)c2)C1 (configuration not stated)
→ -2%	6%
> COC(=O)c1ccc2cc(C)cc(C)c2n1
→ 8%	-5%
> CC(O)(c1ccc(F)c(F)c1)c1nc(-c2ccccc2)cs1 (configuration not stated)
→ 0%	-8%[18.4 µM]
> Cc1cc(C)n2c(NC3CCCC3)c(-c3ccc(F)cc3)nc2n1
→ -12%	-21%

Next compounds follow:
Every second line gives: StopGo reporter	RE007 growth inh
> CCOC(=O)c1cc2cc(OC)ccc2n1C1CCN(C)CC1
→ -20%	4%
> COc1cccc(COC(=O)C2CC(=O)N(Cc3ccccc3)C2)c1OC (configuration not stated)
→ -25%	-14%
> COCCNC(=O)C1(C)Cc2c(-c3ccc(N(C)C)cc3)ccnc2O1 (configuration not stated)
→ -2%	1%
> COc1cccc(S(=O)(=O)Nc2ccc(C(O)(C(F)(F)F)C(F)(F)F)cc2)c1
→ 21%	-8%
> CCOC(=O)c1ccc(S(=O)(=O)N2CCC(C(=O)NCC3COc4ccccc4O3)CC2)cc1 (configuration not stated)
→ -27%	4%
> O=C(Nc1cccc(C(=O)N2CCCC2)c1)C1CCCCC1
→ -8%	3%
> O=C(Nc1cccc(C(F)(F)F)c1)c1ccc2sc([C@H]3C[C@H](O)[C@@H](CO)O3)nc2c1
→ 20µM*	23%
> Cc1cccc(-c2noc(-c3csc([C@@H]4C[C@H](O)[C@@H](CO)O4)n3)n2)c1
→ 6%	5%[18.4 µM]
> CC1=C(C(=O)N(C(C)C)C(C)C)CC(CC(=O)NC(c2ccccc2)c2ccccc2)C(=O)N1Cc1ccc(F)cc1 (configuration not stated)
→ -23%	4%
> CN(C(=O)c1cccc(NC(=O)Cc2ccc(NC(=O)C3CCN(C(=O)C4CCCCC4)CC3)cc2)c1)C1CCCC1
→ -24%	10%
> COCc1cn(CC(=O)c2sc(NC(=O)C(C)(C)C)nc2C)nn1
→ -7%	2%
> Cc1ccc(CNC(=O)c2cc(-c3ccccc3)nn2CC2CC(c3cccc([N+](=O)[O-])c3)=NO2)cc1 (configuration not stated)
→ 4%	2%
> COC(=O)c1ccc(N2C(c3cc(OC)cc(OC)c3)=Cc3ccc(-c4cnc(OC)nc4)cc3C2CC(=O)C2CC2)cc1 (configuration not stated)
→ -19%	5%
> COc1ccc(NC(=O)c2cc(-c3ccc(F)cc3OC(C)C)n[nH]2)c(OC)c1
→ -23%	-6%
> O=C(c1ccc(-c2ccccc2Cl)s1)N1CCOCC1
→ 32%[activator]	-2%
> O=C(OCc1cn([C@@H]2CN(Cc3cccs3)[C@@H](c3ccccc3)C[C@H]2O)nn1)c1ccccc1
→ -15%	2%
> CC1CCC(NC(=O)C(NS(=O)(=O)c2ccc(Br)cc2)C(C)C)CC1 (configuration not stated)
→ 17%	-1%
> CC(=O)N1CCOc2ccc(S(=O)(=O)N3CCC(C(=O)NCc4ccc(Cl)cc4)CC3)cc21
→ -21%	2%
> CN(CC(=O)Nc1ccc(Cl)c(C(F)(F)F)c1)C(=O)C1CCN(C(=O)c2ccc(Cl)cc2)CC1
→ -26%	6%
> COc1ccc(CCNC(=O)c2cc([C@@H](NC(=O)OC(C)(C)C)C(C)C)sc2N)cc1OC
→ -23%	-7%
> Cc1ccccc1Nc1nc(Cl)nc(NC(C)(C)C)n1
→ ?	-7%
> Cc1ccc([C@H]2N[C@]3(CCCN(Cc4cccn4C)C3=O)[C@H]3C(=O)N(C)C(=O)[C@@H]23)cc1
→ -17%	-9%
> Cc1ccc(S(=O)(=O)N2C[C@H]3[C@H]4C(=O)N(c5ccccc5)C(=O)[C@H]4C[C@H](OC(=O)Nc4c(C)noc4C)[C@@]3(O)C2)cc1
→ ?	-3%
> C/C(NCCc1ccc(O)cc1)=C1/CCOC1=O
→ -5%	14%
> S=C1NC[C@H](Cc2ccccc2)N1CC1CCN(CCCCc2ccccc2)CC1
→ -26%	-7%
> O=C(CCc1c[nH]c2ccccc12)OCc1cccc(C(F)(F)F)c1
→ -18%	?
> CN(CC(=O)Nc1ccc(F)cc1)C(=O)CN1C(=O)NC(CCc2ccccc2)C1=O (configuration not stated)
→ -21%	0%
> CCc1nc2c(OCc3ccc(Cl)cc3Cl)cccn2c1N(C=O)Cc1ccc(OC)cc1
→ -9%	-2%[18.4 µM]
> CCOC(=O)[C@]12CCCC=C1N(CCC1=CCCCC1)C(=O)[C@H](CC(=O)NCc1cccc3ccccc13)C2
→ -17%	-5%

Screening results (PubChem BioAssay)
